Assay outcomes: PubChem BioAssay, several laboratories
rRNA inh HTS – reduced GFP signal of wild-type E. coli, primary screen, bacterial rRNA inhibitor project, GFP/RFP fluorescence, OD600, single point; E. coli WT GFP vs humanized-ribosome RFP mutants, 24 h; hits give low values; DMSO median 0, no signal -100; GFP signal change (wild-type ribosome), % (test concentration not listed); hit rate 1.6% among 350,000; AID 720706, 2013;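 active means significant combined selectivity score with lowered wild-type GFP, culture density cut under 30%, mutant RFP and density less affected; inactive means any of these conditions unmet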; further: one replicate is shown; some compounds called inactive have numbers as strong as hits
HNF4A DNA FP – change in binding of human HNF4A to DNA, primary screen, biochemical, fluorescence polarization, FITC-DNA; hit rate 0.3% among 360,000; 1 h; activity change, % at 10 µM; Hepatocyte nuclear factor 4-alpha (Homo sapiens), P41235; in the data active means activity change above about 30%, passing the limit was not always enough;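 further: controls were the assay level and a saturating level of protein; the project sought stronger binding though the title names inhibitors; some compounds called inactive have numbers as strong as hits; positive values seem to mean higher polarization but the record does not say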
Target sequence (P41235 whole entry, looked up): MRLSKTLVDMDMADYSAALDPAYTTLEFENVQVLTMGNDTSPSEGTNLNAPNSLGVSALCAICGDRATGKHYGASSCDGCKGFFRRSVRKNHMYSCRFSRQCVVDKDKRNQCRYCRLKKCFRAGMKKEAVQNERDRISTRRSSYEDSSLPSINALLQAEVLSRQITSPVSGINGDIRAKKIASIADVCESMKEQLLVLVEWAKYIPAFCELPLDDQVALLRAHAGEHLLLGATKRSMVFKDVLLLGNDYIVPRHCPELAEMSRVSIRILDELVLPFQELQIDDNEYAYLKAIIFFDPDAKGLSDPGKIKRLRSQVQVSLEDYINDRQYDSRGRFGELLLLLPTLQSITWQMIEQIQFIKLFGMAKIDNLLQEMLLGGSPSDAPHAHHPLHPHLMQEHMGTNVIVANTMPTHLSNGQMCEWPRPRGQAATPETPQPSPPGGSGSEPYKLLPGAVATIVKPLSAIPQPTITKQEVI
FGF22 binding – binders of human FGF22 protein, primary screen, FGF22 synaptogenesis inhibitor project, biophysical, thermal shift, single point; AID 651658, 2012; calls only at 9.99 µM; Fibroblast growth factor 22 (Homo sapiens), Q9HCT0; recombinant FGF22 thermal shift, SYPRO orange fluorescence; percent of sucrose octasulfate shift, DMSO zero; hit rate 1.5% among 340,000;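 active means melting point raised past a set limit in the mean and every replicate; inconclusive means no clear call; three in four hits are not shown here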
Target sequence (Q9HCT0 whole entry, looked up): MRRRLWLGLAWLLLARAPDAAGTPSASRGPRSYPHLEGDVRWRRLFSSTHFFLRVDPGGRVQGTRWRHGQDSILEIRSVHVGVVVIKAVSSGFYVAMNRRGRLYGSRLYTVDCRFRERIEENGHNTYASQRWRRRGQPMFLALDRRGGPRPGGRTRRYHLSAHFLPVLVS
AF4-AF9 inh – inhibitors of AF4 peptide binding to AF9, primary screen, biochemical, AlphaScreen, biotin-AF4 peptide, FLAG-AF9, single point. Protein AF-9 (Homo sapiens), P42568. inhibition, % at 10 µM. hit rate 0.47% among 350,000. AID 651704, 2012;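 active means every replicate reaching a set inhibition limit, whatever the replicate mean, cut at about 25% in these data; inconclusive means mean inhibition reaches that limit but some replicates miss it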;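 further: 0% = plate neutral control median and 100% = total signal loss; the record names both 10 and 1 µM as test concentration; the first replicate is given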
Vif A3G – inhibitors of Vif binding to APOBEC3G peptide, primary screen, biochemical, TR-FRET, GST-Vif 1-94, biotin-A3G peptide, dose response retest (AID 1117319); Virion infectivity factor (Human immunodeficiency virus type 1 group M subtype B (isolate …; TR-FRET GST-Vif / biotin-A3G peptide binding; higher % means a stronger effect; test concentration not given here; strong numbers were not always called active; one-dose inhibition, %; IC50 in µM for titrated hits; hit rate 0.57% among 260,000;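 active means above the screen mean plus three standard deviations and confirmed in dose response; inconclusive means results disagree or hit not tested in dose response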;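 further: Vif residues 1-94 fused to GST binding biotinylated APOBEC3G peptide 110-148; 0% = full assay without inhibitor and 100% = GST in place of GST-Vif; retest series ran down from 100 µM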
E coli growth – E. coli growth inhibition, primary screen, OD600; hit rate 0.21% among 330,000; OD600 absorbance (concentration not given with the values); Escherichia coli growth, 23 h; hits give low values; AID 1053175, 2014;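 active means OD600 absorbance below the run mean of sample wells minus 3.6 SD, in any replicate, cut at about 0.56 in these data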;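 further: stock transfer was 300 nL into about 60 µL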
ALR H2O2 inh – inhibitors of human ALR sulfhydryl oxidase, primary screen, biochemical, H2O2 detection, HRP-luminol luminescence, single point; FAD-linked sulfhydryl oxidase ALR (Homo sapiens), P55789; purified ALR, DTT oxidation; inhibition, % (test concentration not listed); hit rate 3.8% among 290,000;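 active means mean and each replicate at 75% or more; inconclusive means only one of the two met; inactive means neither met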;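 further: stock transfer was 7.5 nL into about 7.5 µL; 0% = neutral wells and 100% = wells with inactivated enzyme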
Target sequence (P55789 whole entry, looked up): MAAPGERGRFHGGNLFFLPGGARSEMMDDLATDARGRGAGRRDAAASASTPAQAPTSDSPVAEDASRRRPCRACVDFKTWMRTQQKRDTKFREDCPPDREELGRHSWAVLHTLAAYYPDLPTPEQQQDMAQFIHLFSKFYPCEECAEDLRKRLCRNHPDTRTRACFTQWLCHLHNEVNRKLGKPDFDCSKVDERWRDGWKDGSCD
rRNA inh HTS OD600 – also measured in rRNA inh HTS; calls as there; OD600 change, %; measured here: OD600 growth;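 optical density of the mix in the first replicate; 0 = DMSO median and -100 = no signal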
rRNA inh HTS RFP – recorded beside rRNA inh HTS, whose call it bears; RFP signal change, %; measured here: RFP humanized mutant strains;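 first replicate; 0 = DMSO median and -100 = no signal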
* hit, by the source's call; i = inactive; ? = inconclusive; . = no result given; & = joins results of further samples. A portion of the library; the hit share may differ from the screen's.

Order of results: rRNA inh HTS	rRNA inh HTS OD600	rRNA inh HTS RFP	HNF4A DNA FP	FGF22 binding	AF4-AF9 inh	Vif A3G	E coli growth	ALR H2O2 inh
> Cc1ccc(-c2nn(Cc3ccccc3)cc2C(=O)N2CCN(c3ccccn3)CC2)cc1
→ -10	-41	-1.1	-0.3	i	6.2	4%	0.69	-10
> COC(=O)Cc1cn(-c2ncc(C(F)(F)F)cc2Cl)c2ccccc12
→ .	.	.	0.1	.	.	6%	0.75	-2
> C[C@H]1CN([C@@H](C)CO)C(=O)Cc2cc(NC(=O)Nc3ccc(C(F)(F)F)cc3)ccc2O[C@@H]1CN(C)Cc1ccc2c(c1)OCO2
→ 3	8	0.7	.	i	0.3	.	.	.
> Cc1ccc(Nc2nc(CSc3n[nH]c(N)n3)cs2)cc1
→ -8	-9	-4.3	4.5	i	6.8	.	0.66	98*
> Oc1ccccc1C(Nc1nccs1)c1ccc2cccnc2c1O (stereo not drawn)
→ -2	-4	3.0	-0.5	i	7.8	.	0.69	-5
> COc1ccccc1CNC(=O)COC(=O)c1ccc(C)s1
→ 11	16	0.5	-2.6	i	-5.7	-16%	0.66	.
> O=C(c1ccccc1)N(Cc1ccc(F)cc1)C1CCS(=O)(=O)C1 (stereo not drawn)
→ .	.	.	-1.7	.	.	-1%	0.68	11
> CC(C(=O)Nc1sccc1C(N)=O)N1C(=O)C2CC=CCC2C1=O (stereo not drawn)
→ .	.	.	3.7	.	.	7%	0.69	97*
> Cc1cc(C)c2nc(N3CCN(C)CC3)c(C#N)cc2c1
→ .	.	.	1.6	.	.	5%	0.68	2
> CCc1ccc(N2CC(C(=O)NCc3ccc4c(c3)OCO4)CC2=O)cc1 (stereo not drawn)
→ .	.	.	1.6	.	.	5%	0.69	6
> Cc1c(NC(=O)CSc2n[nH]c(=O)n2-c2ccccc2)c(=O)n(-c2ccccc2)n1C
→ 3	11	-3.5	-0.2	.	-1.8	-2%	0.67	9
> Nc1nc2ccccc2n1S(=O)(=O)c1ccccc1
→ 4	-11	9.9	1.9	i	-1.9	.	.	.
> CCCCN1CC(O)=C(c2nc(-c3ccc(Br)cc3)cs2)C1=N
→ 8	3	-3.2	-4.3	i	-5.9	.	0.69	-3
> CCc1nnc(NC(=O)CC(CN(C)S(=O)(=O)c2ccccc2)c2ccccc2)s1 (stereo not drawn)
→ -5	-15	3.7	2.9	i	4.1	73%	0.7	-1
> O=C(c1ccccc1F)N1CC[C@H]2[C@H](CO)Nc3ccc(C#Cc4ccccc4)cc3[C@H]21
→ 0	2	9.5	.	i	3.2	.	.	.
> C[C@@H]1CCCCO[C@@H](CN(C)C(=O)Cc2ccccc2)[C@@H](C)CN([C@@H](C)CO)C(=O)c2cc(NS(=O)(=O)c3cccs3)ccc2O1
→ 0	-9	0.6	.	i	1.4	.	.	.
> C[C@@H]1CCCCO[C@@H](CN(C)Cc2ccccc2)[C@H](C)CN([C@H](C)CO)C(=O)c2cc(NS(=O)(=O)c3ccccc3)ccc2O1
→ 1	-5	3.9	.	i	1.3	.	.	.
> O=C(Nc1ccc(N2CCCC2)cc1)c1ccc([N+](=O)[O-])cc1Cl
→ -2	1	-1.0	-0.5	i	6.7	13%	0.72	-40
> Cc1c(C)c2ccc(OCC(=O)Nc3ccccc3C(N)=O)cc2oc1=O
→ 5	-1	1.4	4.0	i	-1.8	.	0.69	-33
> Cc1c(C)n(C(=O)CN2CCN(c3ccccc3)CC2)c2ccccc12
→ .	.	.	1.8	.	.	25%	0.75	18
> COc1cccc(C(=O)N(CN2CCCC2=O)c2cccc(Cl)c2)c1
→ .	.	.	-1.0	.	.	3%	0.66	.
> COc1cc2c(cc1OC)CN(C(=O)c1sc(-c3cnccn3)nc1C)CC2
→ -11	0	-0.9	0.3	i	0.9	.	0.69	-2
> O=C(CN(C(=O)CNS(=O)(=O)c1ccccc1)C1CCCC1)NCc1ccco1
→ .	.	.	1.6	.	.	-1%	0.75	10
> CN(C)CCNC(=O)C(=O)NCC1CCCN1S(=O)(=O)c1cccs1 (stereo not drawn)
→ 5	8	-0.6	-1.1	i	4.9	-2%	0.71	-6
> Nc1ccccc1C(=O)NC(=O)Nc1ccc(Oc2ncc(Br)cn2)c(Cl)c1
→ -3	-13	1.5	4.6	i	-4.2	-10%	.	.
> COc1ccc([C@@H]2[C@@H]3C(=O)N(C(C)(C)C)C(=O)[C@@H]3[C@]3(Cc4ccccc4)C(=O)N(c4ccc(OC)cc4)C(=O)N23)cc1
→ 4	10	-8.7	-2.8	i	-3.1	.	.	10
> C=CCNCCCCOc1ccc(OCc2ccccc2)cc1
→ 4	0	1.2	-1.0	i	12	?	0.61	-18
> Cc1ccc(C(=O)Nc2ccccc2C(=O)O)cc1S(=O)(=O)NCc1ccccc1
→ -8	-7	1.3	0.8	i	0.9	4%	0.71	5
> Cc1ccc(/C=C/C(=O)N2CCN(S(=O)(=O)c3c(C)c(C)cc(C)c3C)CC2)o1
→ 13	8	6.3	8.5	i	-10	26%	0.74	6
> C/C(Cn1nc([N+](=O)[O-])cc1C)=N\NC(=O)COc1ccccc1[N+](=O)[O-]
→ 9	-2	-4.7	-0.6	i	1.1	.	.	7
> CC(NC(=O)COC(=O)c1ccccc1SCC(=O)N1CCCC1)c1ccccc1 (stereo not drawn)
→ 3	7	-0.6	1.5	i	0.2	5%	0.7	0
> COc1ccc(NC(=O)CN2C(=O)NC(C)(c3ccc(C)cc3)C2=O)c([N+](=O)[O-])c1 (stereo not drawn)
→ -4	6	1.6	2.0	i	7.0	.	0.68	-1
> O=S(=O)(/N=C(/NS(=O)(=O)c1ccccc1)c1ccccc1)c1ccccc1
→ 6	8	-1.1	-1.1	i	-12	11%	.	-23
> COc1ccc(C(CNC(=O)COc2ccc(Cl)cc2C)N2CCCCC2)cc1 (stereo not drawn)
→ 11	4	5.0	-2.9	i	-2.7	-2%	0.66	-6
> Cc1cccc(OCCOc2ccccc2C=C(C#N)C#N)c1
→ -1	6	7.0	4.0	i	-4.7	4%	0.65	.
> Cc1ccc(NC=C(S(=O)(=O)c2ccccc2)S(=O)(=O)c2ccccc2)cc1
→ .	.	.	4.2	.	.	.	0.75	-8
> CC1(C)N=C(N)N=C(N)N1c1ccc(F)cc1F
→ .	.	.	-1.6	.	.	?	0.79	-15
> CCCCC[C@H]1CCCCC[C@H](O)C[C@@H](O)[C@H](O)/C=C/C(=O)O1
→ -31	-59	-12	2.3	i	0.3	.	.	.
> COc1ccc(NC(=O)Nc2ccc3c(c2)C(=O)N([C@@H](C)CO)C[C@H](C)[C@@H](CN(C)S(=O)(=O)c2ccc(OC)cc2)O3)cc1
→ 1	9	3.1	.	i	4.6	.	.	.
> COc1ccccc1NC(=O)c1sc2nc(Cc3ccccc3)cc(C(F)(F)F)c2c1N
→ .	.	.	-13	i	4.5	-19%	0.76	-2
> Fc1ccc2[nH]c3c(N4CCN(c5ccccc5)CC4)ncnc3c2c1
→ .	.	.	-0.3	.	.	10%	0.71	38
> Cc1ccccc1-n1ncc2c(SCC(=O)N3c4ccccc4CC3C)ncnc21 (stereo not drawn)
→ -26*	-3.2*	-5.3*	-2.6	i	6.2	5%	0.72	-6
> O=C(CS(=O)(=O)Cc1ccccc1)Nc1ccc(Cl)cn1
→ .	.	.	-0.6	.	.	-11%	0.68	42
> O=C(c1ccc(Cl)c(S(=O)(=O)N2CCCC2)c1)N1CCN(c2ccccc2)CC1
→ -17	-16	-0.1	2.4	i	2.9	1%	0.67	21
> O=C(O)c1cc(NC(=O)c2ccc3c(c2)C(=O)N(Cc2cccnc2)C3=O)cc(C(=O)O)c1
→ 10	13	-2.0	1.3	i	-5.8	6%	0.69	-6

Brought forward from above: 3 compounds, then new ones.
Order of results: rRNA inh HTS	rRNA inh HTS OD600	rRNA inh HTS RFP	HNF4A DNA FP	FGF22 binding	AF4-AF9 inh	Vif A3G	E coli growth	ALR H2O2 inh
> O=C(CS(=O)(=O)Cc1ccccc1)Nc1ccc(Cl)cn1
→ .	.	.	-0.6	.	.	-11%	0.68	42
> O=C(c1ccc(Cl)c(S(=O)(=O)N2CCCC2)c1)N1CCN(c2ccccc2)CC1
→ -17	-16	-0.1	2.4	i	2.9	1%	0.67	21
> O=C(O)c1cc(NC(=O)c2ccc3c(c2)C(=O)N(Cc2cccnc2)C3=O)cc(C(=O)O)c1
→ 10	13	-2.0	1.3	i	-5.8	6%	0.69	-6
> O=C(c1ccncc1)N1C[C@@H]2[C@H](c3ccccc31)[C@H](CO)N2Cc1ccc(F)cc1
→ 1	4	-0.6	.	i	-1.3	.	.	.
> Cc1nn(CC(=O)NC2CCS(=O)(=O)C2)c(C)c1S(=O)(=O)N(C)C (stereo not drawn)
→ 15	8	1.2	-0.6	i	-0.5	.	0.71	.
> CN(C)S(=O)(=O)c1ccc(/C(O)=C2/C(=O)C(=O)N(Cc3cccnc3)C2c2cccs2)cc1 (stereo not drawn)
→ 12	11	2.2	9.0	i	2.8	2%	0.6	-9
> CCc1c(C)nc2ncnn2c1N1CCC(C(=O)N2CCN(c3ccc(F)cc3)CC2)CC1
→ .	.	.	-0.8	.	.	2%	0.72	11
> C#CCOCCOCCOCCNc1nc(N2CCN(C(=O)[C@H](Cc3cc4ccccc4[nH]3)n3cc([C@@H](N)CC(C)C)nn3)CC2)nc(N2CCN(C(=O)[C@H](Cc3cc4ccccc4[nH]3)n3cc([C@@H](N)CC(C)C)nn3)CC2)n1
→ .	.	.	25	.	.	-4%	.	-11
> O=C1NC(=O)C(c2ccccc2)(C2CCCC2)N1 (stereo not drawn)
→ 4	1	0.3	0.7	i	0.0	3%	0.63	.
> CN1C[C@@H](O)COC[C@H]2O[C@H](CC(=O)N3CCN(c4ccccc4)CC3)CC[C@@H]21
→ 12	26	1.3	.	i	-1.2	.	.	.
> COc1ccc(S(=O)(=O)Nc2cccc3c2O[C@H](CN(C)C(=O)NC2CCCCC2)[C@@H](C)CN([C@H](C)CO)C3=O)cc1
→ -2&5	-6&-2	-1.2&7.3	-3.9	i	-0.1&-1.3	-9%	.	.
> O=C(NCc1ccccc1)/C(=C\c1cccc([N+](=O)[O-])c1)NC(=O)c1ccco1
→ 17	29	0.3	-1.0	i	-2.5	.	.	.
